VACV mCherry inh – qHTS for Stage-Specific Inhibitors of Vaccinia Orthopoxvirus: mCherry Reporter Primary qHTS; AID 720579, 2013; actives 0.63% (n = 310,000); Potency, µM (highest dose often 36.5 µM), for the others: top-dose activity change, negative = inhibition, actives largely listed as inhibitors; Vaccinia virus mCherry reporter infection, fluorescence; about a quarter of the inactives have no number; active = well fitted inhibition curve with a large enough effect; inconclusive = small, poorly fitted or top-dose-only effect; inactive = no such curve, though single readings can be large or run the other way; tested in A549 cells; note: nearly all actives have a fitted effect of over 35% in size; inactives centre near -10
VACV Venus inh – qHTS for Stage-Specific Inhibitors of Vaccinia Orthopoxvirus: Venus Reporter Primary qHTS. Vaccinia virus Venus reporter expression, fluorescence. Potency, µM (titrated, usually from 36.5 µM), for the others: at the highest dose activity change, negative = inhibition, hits mostly inhibitors. actives 0.46% (n = 330,000). AID 720580, 2013; active means well fitted inhibition curve with a large enough effect; inconclusive means small, poorly fitted or top-dose-only effect; inactive means no such curve, though single readings can be large or run the other way; tested in A549 cells; note: nearly all actives have a fitted effect of over 30% in size; inactives centre near -10
Numbers without * were called inactive; i = inactive; ? = inconclusive; . = no result given; [ ] = remark or other dose. % is set by controls: 0 for no effect and ±100 for the full control effect; potency is the fitted concentration of half-maximal effect.

smiles | VACV mCherry inh | VACV Venus inh
Cc1ccccc1CC(=O)NCc1cccnc1 | -13% | -8%
O=C(CCc1ccccc1)N=C1SC2CS(=O)(=O)CC2N1c1ccc(F)cc1 (stereo not given) | -12% | -11%
CC1Cc2ccccc2N1C(=O)Cn1nc(C(=O)O)c2ccccc2c1=O (stereo not given) | . | -11%
CCOc1ccc(CCNC(=O)CN2CCN(Cc3ccc(Cl)cc3)C2=O)cc1OCC | -8% | 2%
CCCC(=O)Nc1nc(C)c(C(C)=O)s1 | i | -4%
COC(=O)CN1C(=O)[C@@H]2[C@H](C1=O)[C@@H]1CC(C(=O)OC)=C[C@@H](C(=O)OC)[C@@H]3C1=C(C(=O)[C@]3(C)NC(=O)c1ccccc1)[C@@H]2C | i | -9%
Cc1nc2c(Cl)cc(Cl)cc2[nH]1 | . | -19%
Cc1ccc(NC(=O)CCn2c(=S)oc3ccccc32)cc1 | i | -14%
C[C@@H]1O[C@H](C2CCCC2)CC2=C1C(=O)OC(C)(C)O2 | i | 3%
CC(=O)Nc1ccc(NC(=O)CC2Nc3cccc4cccc(c34)NC2=O)cc1 (stereo not given) | -21%[1.46 µM] | -7%
CC(C)N1CCN(Cc2cc(F)ccc2-n2cccn2)CC1CCO (stereo not given) | i | 4%
COc1ccccc1OP(=O)(Nc1cccnc1)Oc1ccccc1OC | i | -15%
O=C(NO)c1ccccc1C(F)(F)F | -12% | -7%
C/C(=N/NS(=O)(=O)c1ccccc1)c1ccc(NC(=O)C2CC2)cc1 | -1% | 7%
N#Cc1ccc(C(=O)N2CCCCC2c2cc(C(=O)Nc3cccc(C#N)c3)no2)cc1 (stereo not given) | 34%[activator] | 19%
c1ccc(Cn2nnc3cnccc32)cc1 | i | -12%
CCOC(=O)c1ccc(NS(=O)(=O)c2cc3c(cc2C)n(C)c(=O)c(=O)n3C)cc1 | -5% | -1%
CCN(C(=O)COC(=O)C(Cc1ccccc1)N1C(=O)c2ccccc2C1=O)C1CCS(=O)(=O)C1 (stereo not given) | . | -7%
Cc1ccc(NC(=O)c2ccc(NCCN)c([N+](=O)[O-])c2)cc1Cl | -13% | -12%
COc1ccc(N(C(=O)c2cccnc2)S(=O)(=O)c2cccc([N+](=O)[O-])c2)cc1 | -13% | 1%

Overlap with the part before: 2 entries; new compounds follow.
smiles | VACV mCherry inh | VACV Venus inh
Cc1ccc(NC(=O)c2ccc(NCCN)c([N+](=O)[O-])c2)cc1Cl | -13% | -12%
COc1ccc(N(C(=O)c2cccnc2)S(=O)(=O)c2cccc([N+](=O)[O-])c2)cc1 | -13% | 1%
COc1ccc(NS(=O)(=O)c2ccc(N/N=C(\C)c3ccncc3)c([N+](=O)[O-])c2)cc1 | ? | ?
Cc1ccc(CNC(=O)c2ccc(C)s2)cc1 | i[7.34 µM] | -1%[7.34 µM]
CCc1ccc(CNC(=O)c2sc3nc[nH]c(=O)c3c2C)cc1 | -24% | -6%
CN1C(=S)N(c2cccnc2)C(=O)/C1=C\c1ccc(N(C)C)cc1 | ? | 25%
COc1ccc(N2CCN(S(=O)(=O)CCNC(=O)c3c(F)cccc3Cl)CC2)cc1 | -11% | -3%
O=C1c2ccccc2C(=O)c2c(NCCCN(CCO)CCO)cccc21 | ? | -10%
Cc1ccn2c(CNCC3COCCO3)c(C(=O)N3CCCCCC3)nc2c1 (stereo not given) | -14% | -10%
Cc1cc(C)cc(N(CC(=O)NCCSCc2ccccc2)S(C)(=O)=O)c1 | -11% | -15%
Cc1cccc(CN2CCN(C3CCCC3)C(CCO)C2)n1 (stereo not given) | -2% | 6%
CN(C(=O)Cc1noc2ccccc12)c1ccccc1 | -10% | -4%
CC(C)CC(=O)/C(=C/c1ccc(N(C)C)cc1)n1cncn1 | -1% | -16%
CCCCN1C(=O)CN(C2CCCCCC2)C(=O)C1c1ccc(OCCC)c(OC)c1 (stereo not given) | -8% | -6%
N#C/C(=C\c1ccc(-c2ccc(C(=O)O)cc2)o1)C(=O)NCC1CCCO1 (stereo not given) | -14% | 2%
O=C1CC(C2CCCO2)C(=O)N1c1cccc(Cl)c1 (stereo not given) | -15%[1.46 µM] | -19%
COc1ccc(C2(CNC(=O)c3cccc([N+](=O)[O-])c3)CCOCC2)cc1 | -19% | -18%
Cn1c(SCC(=O)Nc2ccc(Br)cc2F)nnc1-c1ccco1 | i | -4%
Cc1cc(/C=N/NC(=O)CC2(C)OCCO2)c(C)n1-c1cc(Cl)cc(Cl)c1 | . | -8%
CC(=O)c1ccc(NC(=O)CSc2ccc(-c3sc(C)nc3C)nn2)cc1 | ? | -25%
C[C@@H]1C=C(C(=O)N2CCN(C)CC2)O[C@H](OCc2ccc(CO)cc2)C1 | -11% | -1%
Nc1ccc(C(=O)N(CCO)CCO)cc1 | -4% | -5%
COc1ccccc1C(O)(c1ccccc1)c1ccccc1OC | -12% | -3%
Cc1ccccc1/C=C/C1=NCCN1 | -1% | -16%
CCc1ccc(NC(=O)C2CCCN(S(=O)(=O)c3cccc4nsnc34)C2)cc1 (stereo not given) | -19% | -3%
Cc1nn(C)c2ncc(C(=O)c3ccccc3O)cc12 | -9% | -14%
O=C(Nc1ccc(F)c(Cl)c1)C1CC(=O)n2c(nc3ccccc32)N1 (stereo not given) | i | -8%
COc1ccc(C(=O)CC(=O)c2ccccc2)cc1 | i | -3%
CC(=O)N/N=C(/C)c1ccc(NC(=O)c2csc(C)c2C)cc1 | -28% | -21%
O=C(c1ccc2c(c1)OCCO2)N1CCN(c2nc(-c3cccs3)nc3ccccc23)CC1 | -6% | -18%
COC(=O)c1ccc(CON2C(=O)c3ccccc3C2=O)cc1 | . | 2%
CC(=O)c1cccc(NC(=S)NCCc2ccc(F)cc2)c1 | -5% | -9%
COc1ccc(-n2cnc3cc(C(=O)NC4CCCCCC4)ccc32)cc1 | -16% | -20%
Cc1ccc(CNC(=O)CCCn2c(=O)c3ccccc3n(CC(=O)NCc3ccco3)c2=O)cc1 | . | -9%
Oc1ccc(-c2sc(Nc3ccccc3)n[n+]2-c2ccc(F)cc2)cc1 | i | -11%
CSc1nc2ccccc2cc1/C=C(\C#N)c1ccc(Cl)c(Cl)c1 | . | -15%
COc1ccc(-c2nnc(NC(=O)CSc3ccccc3)s2)cc1OC | i | -24%
COc1cc([N+](=O)[O-])ccc1NC(=S)Nc1cc(C(=O)OC(C)C)cc(C(=O)OC(C)C)c1 | -20% | -18%
COC(=O)[C@@H]1CCCN1C(=O)c1c(OC)cc(=O)n2c1CCN(Cc1ccc3c(c1)CCO3)CC2 | -8% | 2%
CCc1cc(=O)n2c([nH]c3ccccc32)c1C#N | -22% | -11%
Cc1n[nH]c(=O)c2c(NC(=O)COC(=O)Cc3c(F)cccc3Cl)oc(C)c12 | i | -6%
Cc1ccc(CN2CCN(/N=C\C(Br)=C\c3ccccc3)CC2)cc1 | -7% | -6%

Taken from the results shown for reference:
smiles | VACV mCherry inh | VACV Venus inh
Cc1ccccc1/C=C/C1=NCCN1 | -1% | -16%
CCc1ccc(NC(=O)C2CCCN(S(=O)(=O)c3cccc4nsnc34)C2)cc1 (stereo not given) | -19% | -3%
Cc1nn(C)c2ncc(C(=O)c3ccccc3O)cc12 | -9% | -14%

New compounds follow.
smiles | VACV mCherry inh | VACV Venus inh
C=CCn1c(N)cc(=O)nc1SCC(=O)Nc1ccc(C(=O)OCC)cc1 | -12% | -7%
CN1CCC(n2[nH]c(-c3ccccc3)c(Cc3ccccc3)c2=O)CC1 | -28% | -9%
CC(=O)N1CN(C2CC(C)(C)NC(C)(C)C2)Cc2c1sc1c2CCCC1 | -19% | 0%
O=C(Nc1nc(-c2ccccc2)cs1)c1ccc(Br)o1 | . | -19%
CCCn1c(C)c(C(=O)OCC)c(O)c(-c2ccccc2)c1=O | -7%[7.34 µM] | -9%[7.34 µM]
NS(=O)(=O)c1ccc(CNC(=S)NC(=O)c2ccco2)cc1 | -7% | 4%
Cc1ccc(S(=O)(=O)N2CCCCC2)c(C)c1NS(C)(=O)=O | i | -9%
O=C(CSc1nc2[nH]c(=O)cc(O)c2s1)Nc1nncs1 | i | -18%
COc1ccc(C2=NOC(C(=O)NC3CCCCC3)C2)cc1OC (stereo not given) | -16% | -16%
Cc1nc(CSc2nsc(C)c2C#N)cs1 | i | 3%
CSc1ncc(C(=O)O)n1-c1ccc(F)cc1 | i | -10%
CC1CCc2[nH]c3ccc(C(=O)N(C)CC(=O)Nc4ccccc4Br)cc3c2C1 (stereo not given) | ? | -26%
CCOC(=O)C1CC=C(Cl)CC1C(=O)Nc1nccs1 (stereo not given) | -6% | -10%
COC(=O)c1nc2ccccn2c1F | i | -11%
Nn1c(Cc2ccccc2F)nnc1SCC(=O)Nc1cccc(S(=O)(=O)NC2=NCCCCC2)c1 | -7% | -20%
Cc1ccc(N2CC(C(=O)NCc3n[nH]c(=O)c4ccccc34)CC2=O)cc1 (stereo not given) | -12% | -21%
COc1ccccc1CNC(=O)CCC(=O)N1C[C@H]2C[C@@H](C1)c1cccc(=O)n1C2 | -4% | 1%
Cc1cc(-c2c(C)[nH]n(-c3ccccc3)c2=O)n[nH]1 | -21% | -11%
O=C(CSc1nc(O)c(C2CCCCC2)c(=O)[nH]1)Nc1ccccc1Cl | 10% | 8%
COc1ccc(C(=O)Nc2ccccc2C(=O)O)cc1Cl | i | -22%
COC(=O)c1ccc(CSc2ncnc3sc(C)c(C)c23)o1 | i | -3%
COc1cccc(CNC(=O)c2cc(=O)[nH]c3ccc(S(=O)(=O)N4CCCC4)cc23)c1 | 7% | 0%
Cc1ccc(S(=O)(=O)NCCc2csc3nc(-c4ccccc4C)nn23)cc1 | 5% | -6%
C=CCN(C(=O)CCc1ccccc1OC)c1nc(-c2ccc(S(C)(=O)=O)cc2)cs1 | -23% | -22%
CC1CCC(NC(=O)Cn2ncc3c4ccccc4n(Cc4ccc(Cl)cc4)c3c2=O)CC1 (stereo not given) | -14% | -15%
COc1ccc(C(=O)NCc2ccccc2)cc1Br | -8% | -12%
O=S1(=O)c2cccc3cccc(c23)N1Cc1ccc(-c2nnco2)cc1 | -17% | -15%
Cc1ccc(-n2ncc3c(NCCCN4CCOCC4)ncnc32)cc1Cl | -19% | -17%
COc1ccc(CN(C)C(=O)c2cc(-c3ccccc3)nc3ccc(C)cc23)c(OC)c1OC | ? | -27%
Cc1ccc(CNc2nc3ccccc3c3nc(-c4cccc(C)c4)nn23)cc1 | -10% | 0%
FC(F)(F)c1cccc(-c2cc3nc(NCCOc4ccccc4)ccn3n2)c1 | ? | -23%
Cc1ccc(-c2nnc(NCc3nc4ccccc4[nH]3)c3ccccc23)cc1S(=O)(=O)N1CCCCC1 | -26% | -19%
O=S(=O)(Nc1cccc(-c2ccc3nncn3n2)c1)c1ccccc1F | -4% | -12%
CCOc1ccc(NC(=S)Nc2cccc3ccccc23)cc1 | ? | -9%
O=C(Nc1ccc(F)cc1F)c1ccc2c(c1)CCN2S(=O)(=O)c1ccc(Cl)cc1 | -16% | -16%
N#Cc1ccsc1NC(=O)CN1CCN(c2ccc(O)cc2)CC1 | -3% | -1%
Cc1ccc(-n2cc(CN3CCNC(=O)CC3)c(-c3cccc(C)c3)n2)cc1 | -29% | -20%
COc1ccc2[nH]c(=O)c(CN(Cc3ccco3)Cc3nnnn3Cc3ccccc3)cc2c1 | -14% | -15%
COC(=O)Cn1nc(-c2ccc(C)cc2)c2ccccc2c1=O | -11% | 3%
CC(C)(C)c1ccc(S(=O)(=O)CC(O)CSc2nc3c(cc2C#N)CCCC3)cc1 (stereo not given) | -7% | 1%
CC(C)(C)C(=O)NC(=S)N1CCOCC1 | -16% | 3%
O=C(Nc1cc(C(F)(F)F)ccc1Cl)C(=O)N1CCCCC1 | i | -7%
Brc1ccc(-c2nc3ccccc3s2)s1 | . | 6%
COc1ccc2oc(C(=O)OCC(=O)N(C)c3ccccc3)c(C)c2c1 | i | -8%
CCN(c1ccc(C(O)(C(=O)OC)C(F)(F)F)cc1)S(=O)(=O)c1ccccc1 (stereo not given) | 0% | -22%
CN(C)c1cccc(NC(=O)C2Cc3c(-c4ccc(Cl)cc4)ccnc3O2)c1 (stereo not given) | -8% | -17%
CC1CC(=O)N(c2ccc(N(C)Cc3ccccc3)c([N+](=O)[O-])c2)C1=O (stereo not given) | -18% | 11%
O=S1(=O)CC(NCc2ccccc2)C(Nc2ccccc2)C1 (stereo not given) | -20% | -16%
C[C@H](CO)N1C[C@H](C)[C@@H](CN(C)S(C)(=O)=O)Oc2ccc(NC(=O)C3CC3)cc2C1=O | -10% | -9%
Cc1nc2cc(NC(=O)C3(C)CCCN(C(C)C)C3)ccc2o1 (stereo not given) | -24% | ?
CCN1C(=O)CSC1=NC1C2CC3CC(C2)CC1C3 (stereo not given) | . | -8%
Fc1ccc(COc2ccc(Br)cc2CNCC2CCCO2)cc1 (stereo not given) | ? | ?
O=C(NCCN1CCCCC1)Nc1cccc(C(F)(F)F)c1 | -5% | -21%
Nc1ccn([C@@H]2O[C@H](CNCc3cccc4c3sc3ccccc34)[C@@H](O)[C@H]2O)c(=O)n1 | -21% | -6%

Screens from PubChem BioAssay.
